HIV Env fusion – blocks HIV Env-driven cell-cell fusion; HeLa-JRFL Env/CEM21 cell fusion, luciferase; inhibition, % at 12.3 µM; 360,000 tested, 1.1% active;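 active means mean replicate inhibition score of at least 50 and every replicate individually at or above 50; inconclusive means only one of the two criteria met; inactive means mean below 50 and not all replicates reaching 50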;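 further: 0% = plate neutral controls and 100% = maraviroc near 300 nM; one replicate is shown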
MT1-MMP act inh – MT1-MMP (human) activation inhibition; AID 651647; 360,000 tested, 0.061% active; HT1080 RFP-PRO-GFP cells, GFP/RFP ratio fluorescence, overnight; percent of plate control window, DMSO zero; GFP/RFP ratio change, % at 20 µM;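 active means GFP/RFP ratio change of at least 30% with cell ATP level not reduced by more than half and red fluorescence within 50% of control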; further: strong numbers were not always called active
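Compound: 20 µM single dose, 1% DMSO / System: HT1080 RFP-PRO-GFP cells / Controls: DMSO and RFP-L50D-GFP cell wells / Read-out basis: GFP/RFP fluorescence ratio / Schedule: overnight compound exposure at 37 °C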
PABP FP inh – PABP-poly(A) binding inhibition | P11940 | PABP-poly(A) RNA binding, fluorescence polarization | inhibition, % at 35 µM | 290,000 tested, 1% active;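 active means 50% or more with normal probe brightness, or confirmed in later tests; inconclusive means above 50% with abnormal brightness, or retests that disagree; inactive means below 50% or failed in later tests; about a fifth of its hits are not listed in these tables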;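 further: calls also rest on retests at 20 µM and on dose response follow-up; controls were probe without protein and protein plus probe with vehicle; some compounds called inactive have numbers as strong as hits; many hits fall short of the cut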
Rce1 inhib – inhibitors of yeast Ras-converting enzyme. Q03530. yeast membranes, quenched prenylated peptide cleavage fluorescence. calls only. 290,000 tested, 0.27% active. AID 2563;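 active means fall in fluorescence gain of 50% or more versus controls, with final raw signal at or below 3038400; inconclusive means same 50% fall but final raw signal above 3038400; inactive means fall in fluorescence gain under 50%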;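 further: plate controls were neutral control wells for no effect and wells lacking membranes for full effect; tested at 10 µM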
Target sequence (Q03530 whole entry, looked up): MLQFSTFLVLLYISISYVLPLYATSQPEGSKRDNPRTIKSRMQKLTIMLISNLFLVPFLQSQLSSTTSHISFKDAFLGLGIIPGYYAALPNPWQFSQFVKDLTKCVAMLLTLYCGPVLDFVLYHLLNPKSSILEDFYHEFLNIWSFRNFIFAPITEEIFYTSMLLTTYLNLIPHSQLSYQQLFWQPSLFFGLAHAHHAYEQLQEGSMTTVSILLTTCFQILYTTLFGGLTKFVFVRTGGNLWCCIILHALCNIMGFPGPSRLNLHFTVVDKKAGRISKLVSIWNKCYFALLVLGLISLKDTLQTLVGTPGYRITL
CSC inhib – blocks cancer stem cells | cancer stem cell-like cells viability, luminescence | inhibition, % at 7.5 µM | 300,000 tested, 1.1% active | AID 2717;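 active means mean at 75% or more and at least half the replicates too; inconclusive means mean and replicates disagree; tested in HMLE shEcad cells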;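 further: 0% = median of negative and 100% = median of positive control wells; the first replicate is given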
eIF4H FP inh – inhibitors of RNA binding by human eIF4H | Q15056 | inhibition, % at 35 µM | eIF4H fluorescence polarization binding assay | 290,000 tested, 0.94% active;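 active means 50% or more with normal probe brightness, or confirmed in later tests; inconclusive means above 50% with abnormal brightness, or retests that disagree; inactive means below 50% or failed in later tests; about a fifth of its hits are not listed in these tables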;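 further: calls also rest on retests at 20 µM and on dose response follow-up; 0% = protein and probe with vehicle and 100% = probe without protein; strong numbers were not always called active; many hits fall short of the cut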
Yeast UUG start – modulators of start codon recognition fidelity in yeast; activity score, % at 18.7 µM; AID 602363; 350,000 tested, 0.13% active; S. cerevisiae UUG-firefly luciferase reporter, luminescence/redox ratio;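 active means replicate mean at a twofold rise or more, about +100% in these data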;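 further: firefly luciferase made from a UUG start codon reports start codon fidelity; reporter light over untreated wells divided by growth signal over untreated wells; some hits fall short of that in this replicate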
MT1-MMP act inh RFP – also measured in MT1-MMP act inh; calls as there; RFP signal change, %; measured here: RFP expression control read;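 0 = vehicle wells; hits needed this value within 50% of zero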
Numbers without * were called inactive; i = inactive; ? = inconclusive; · = not tested or not shown. These rows are one share of the data (hit frequency here may not be typical).

Compound	CSC inhib	MT1-MMP act inh	HIV Env fusion	Rce1 inhib	PABP FP inh	eIF4H FP inh	MT1-MMP act inh RFP	Yeast UUG start
COC(=O)c1ccc(COc2ccc(CNCc3ccc(Cl)cc3)cc2)cc1	-8	-1	-4	i	-17	9	-4	-8
CCOC(=O)c1c(C)[nH]c(C(=O)CSc2nnnn2-c2ccc(C)cc2)c1C	5	4	·	i	8	-1	3	-7
Cc1ccc(NC(=O)N2CCCC2C(=O)NCc2ccccc2Cl)cc1 (centres undefined)	-33	-3	-3	i	6	-4	-2	-9
CCCC(C)C(=O)Nc1cccc(NC(C)=O)c1 (centres undefined)	-4	0	12	i	-16	-8	0	-14
CCCNC(=S)Nc1cc2oc3ccccc3c2cc1OC	31	4	-14	i	5	-2	3	-32
Cc1ccc(C(=O)N2CCC(n3nccc3NC(=O)c3ccccc3C)CC2)cn1	-7	2	10	i	0	-1	5	-10
COc1cccc(C2CNC3(CCCC(C)C3)c3[nH]c4ccccc4c32)c1OC (centres undefined)	6	-2	-37	i	-4	-2	-4	13
CCn1c(N2CCC(C)CC2)nc2c1c(=O)n(C)c(=O)n2C	-9	2	-2	i	-3	-7	-4	1
COc1cccc(-n2c(COc3ccccc3C)nnc2SCC(=O)O)c1	11	2	·	i	-2	-2	13	-21
O=C(CCc1ccccc1)NNC(=O)C12CC3CC(CC(C3)C1)C2	2	4	-13	i	16	7	7	-13
O=C(Nc1nc(-c2ccco2)c(-c2ccco2)s1)C1CC(=O)N(c2ccc3c(c2)OCCO3)C1 (centres undefined)	-19	-10	10	i	88*	84*	2	-18
CC(C)NC(=S)N/N=C/c1cc(Br)ccc1O	23	-1	20	i	-2	-4	-16	·
CCNC(=O)C(C)Oc1ccc(Cl)cc1Cl (centres undefined)	-5	3	-2	i	-10	-4	3	-7
C=CCNc1nc(N)c([N+](=O)[O-])c(Nc2ccccc2OC)n1	6	-13	9	i	-1	-9	-9	-14
NS(=O)(=O)c1ccc(-c2ccc(/C=C3\SC(=O)NC3=O)o2)cc1	-16	-9	1	i	7	10	-7	-1
CC(C)c1ccccc1NC(=O)COc1ccc(C(=O)NCCc2ccccc2)cc1	3	0	20	i	3	-13	-3	·
Nc1cc2c(cc1C(=O)c1cccc(Br)c1)OCCO2	58	2	14	i	-5	-14	-1	·
CCOC(=O)C1=C(COC(=O)/C=C/c2cccc(Br)c2)NC(=O)NC1C (centres undefined)	-13	2	·	·	·	·	-1	-10
COc1ccccc1NC(=O)CCSc1nc(C)cs1	-2	-2	-1	i	-2	-7	-2	-7
Oc1ccc(/C=N/NC(=S)Nc2cccnc2)c(O)c1O	·	-5	-38	i	56*	87*	2	-37
COc1ccc(CN2CCNC(=O)C2CC(=O)NCCC2=CCCCC2)c(F)c1 (centres undefined)	4	-4	-173	i	16	16	-1	-18
CC(=O)c1ccc(NC(=O)COC(=O)C2CCN(S(=O)(=O)c3cccs3)CC2)cc1	·	-5	5	·	·	·	1	0
Cc1nc(-c2ccccn2)sc1C(=O)Nc1ccc(F)cc1	-3	-1	-10	i	-5	2	0	-12
COCC(=O)Nc1ccc([N+](=O)[O-])cc1C	-6	-3	-10	i	-13	-2	-2	-12
CCOC(=O)C1(CCOc2ccccc2)CCN(Cc2nccn2CC)CC1	7	-2	1	i	-14	2	5	·
Cn1c(N)cc(=O)[nH]c1=S	·	6	-3	·	·	·	2	-7
C=C(C)c1cccc(C(C)(C)NC(=O)Nc2ccc(C)cn2)c1	-2	-8	·	i	-7	-2	-10	·
CC(Cc1cccnc1)NC(=O)CCc1nnc(-c2ccccc2)o1 (centres undefined)	1	2	-2	i	-3	8	5	-17
Cc1ccc(NCN2C(=O)C3CC=CCC3C2=O)cc1 (centres undefined)	-12	4	-3	i	5	4	7	·
CCOC(=O)C1(Cc2ccccc2)C(=O)Nc2ccccc21 (centres undefined)	1	0	3	i	·	·	1	·
Cc1cc2ncn(/N=C/c3cccnc3)c2cc1C	1	5	-113	i	15	8	-4	-17
Cc1cc(C)c2nc(-c3ccccn3)cc(C(=O)NCc3ccc(S(N)(=O)=O)cc3)c2c1	23	-6	26	·	-11	6	-10	·
O=C(Nc1cccnc1)c1sc2cccc(F)c2c1Cl	-4	-18	-5	i	6	-11	-10	-9
CCOC(=O)c1cc(-c2ccco2)nc2c1c(C)nn2CCC#N	-15	-1	·	i	3	3	0	-20
CN1C(=O)/C(=C/C=C2\SCCN2C)OC1=S	3	-125	-19	i	?	?	5	·
O=C(COC(=O)C1CCN(S(=O)(=O)c2cccc3cccnc23)CC1)c1ccccc1	-6	-4	-11	i	6	6	1	10
CCOc1ccc(N2CC(C(=O)Nc3ccc(S(=O)(=O)N4CCOCC4)cc3)CC2=O)cc1 (centres undefined)	-4	-3	-75	i	6	-5	-2	-8
CC(C)OC(=O)CCCNc1ccc([N+](=O)[O-])cc1[N+](=O)[O-]	-10	7	·	i	14	-10	6	3
O=c1[nH]c2ccccc2n2c(=S)[nH]nc12	·	6	5	i	19	3	0	·
COc1ccc(NC(=O)C2CCCO2)cc1OC (centres undefined)	-10	5	·	i	2	-2	0	-18
CCOC(=O)C1CCN(c2cc3c(cc2NC(=O)c2ccccc2Cl)n(C)c(=O)n3C)CC1	-13	-1	7	i	-3	-10	-2	-6
CSc1ccccc1OCc1cc(C(=O)NC2CCOC(C)(C)C2)no1 (centres undefined)	1	2	·	i	-5	-18	-2	-17
C1=CC2CC1CC2CN1CCN(c2ccccc2)CC1 (centres undefined)	38	1	·	i	4	-6	4	-18
CC1Oc2ccc(C#N)cc2N(Cc2ccccc2OC(F)(F)F)C1=O (centres undefined)	·	-10	32	·	·	·	-4	-5
C#CCOCCOCCOCCNc1nc(N2CCN(C(=O)[C@H](CCCCN)n3cc(CN)nn3)CC2)nc(N2CCN(C(=O)[C@H](CCC(=O)O)n3cc([C@@H](N)[C@H](C)CC)nn3)CC2)n1	·	1	1	·	·	·	2	14
CCOc1ccc(-c2nc(CSCC(=O)NCC3CCCO3)c(C)o2)cc1 (centres undefined)	-2	-4	-16	i	-3	2	-3	-12
COc1ccc(-c2csc(C(C)(NC(C)=O)c3ccccc3)n2)cc1 (centres undefined)	·	-5	-2	·	·	·	-3	-13
NC(=O)c1ccc(NC(=O)COC(=O)CC23CC4CC(CC(Br)(C4)C2)C3)cc1	-9	3	13	·	·	·	2	4
COc1ccccc1-c1oc2ccccc2c1C#CCCCCO	64	-1	·	·	·	·	-5	6
O=C(Nc1ccc(Cn2cccn2)cc1)c1ccc(COc2ccc(Br)cc2)cc1	3	6	·	·	37	44	1	4
COc1ccc(NS(=O)(=O)c2ccc(-c3coc(C)n3)cc2)cc1OC	0	6	8	i	·	·	-28	-18
O=C(COc1ccccc1[N+](=O)[O-])NCCC1=CCCCC1	-4	-6	27	i	-17	3	-6	·
CCOc1ccc(C(=O)NCC(=O)OCC(=O)N2CCCCC2)cc1	-3	-5	-22	·	3	2	4	-1
CC1(C(=O)Nc2cccc(C#N)c2)CCN1C(=O)Cc1ccc(-c2ccccc2)cc1 (centres undefined)	·	11	21	·	·	·	-31	-3
CNC(=S)Nc1cccc(S(=O)(=O)NC2=NCCC2)c1	-4	-1	3	i	1	8	1	·
O=C(c1cccc(C(=O)N2CCN(c3ccccc3)CC2)c1)N1CCN(c2ccccc2)CC1	·	2	-34	i	8	12	-5	17
CCCCN(C(=O)c1ccccc1OCc1ccc(F)cc1)c1c(N)n(CCC)c(=O)[nH]c1=O	-35	-5	-13	i	-1	8	-1	11
COc1ccc(NC(=O)CN(C)C(=O)c2cn(-c3ccccc3)nc2-c2cccnc2)cc1	5	2	7	i	·	·	-1	-8
COc1ccc(-n2nc(C(=O)NCC(=O)NC(C)C)c3ccccc3c2=O)cc1	-5	-1	5	i	9	-8	0	-9
Cc1cc(OC(C)C(=O)NCCN2CCOCC2)c2c(C)c(C)c(=O)oc2c1 (centres undefined)	-18	1	-8	i	-9	-12	3	-37

The list continues.
Compound	CSC inhib	MT1-MMP act inh	HIV Env fusion	Rce1 inhib	PABP FP inh	eIF4H FP inh	MT1-MMP act inh RFP	Yeast UUG start
C/C=C/Cn1c(SCc2ccc(Cl)cc2)nc2c1c(=O)[nH]c(=O)n2C	21	-1	·	i	-12	-3	-11	-17
COc1cccc(C2/C(=C(\O)c3ccc4c(c3)OCO4)C(=O)C(=O)N2CCN(C)C)c1OC (centres undefined)	2	-3	·	i	8	-2	5	1
Cc1c(NC(=O)c2ccc(N(C)S(=O)(=O)c3ccccc3)cc2)c(=O)n(-c2ccccc2)n1C	-8	2	-13	i	-8	0	1	13
O=C(NC1CC1)c1cccc(Oc2ccccc2)c1	-3	-5	1	i	-8	5	-1	-4
O=C(CN1C(=O)NC2(CCCCC2)C1=O)Nc1cccc2ncccc12	-21	5	·	·	·	·	2	-17
Cc1c(CNCCc2ccccc2)c(C(=O)O)c(C)n1-c1ccccc1	-8	0	5	i	0	1	5	6
CC(=O)Nc1nc2ccccc2n1Cc1ccccc1	6	10	·	i	-1	-1	2	-9
Cc1ccc(NC(=O)CC2SC3=NCCCN3C2=O)c(C)c1 (centres undefined)	-8	-32	·	i	?	?	1	-16
CC1(C)Cc2nc3sc(C(=O)NCCO)c(N)c3cc2CO1	-3	6	-116	i	-2	6	-1	-7
CC(NC(=O)COC(=O)c1ccccc1O)C1CC2CCC1C2 (centres undefined)	-21	2	·	·	·	·	-3	-8
NS(=O)(=O)c1ccc(CCNC(=S)Nc2ccc(F)cc2)cc1	3	1	-7	i	-6	4	1	-11

In another format: three of the compounds above.
Sequence of screens – CSC inhib, MT1-MMP act inh, HIV Env fusion, Rce1 inhib, PABP FP inh, eIF4H FP inh, MT1-MMP act inh RFP, Yeast UUG start
Cc1ccc(NC(=O)CC2SC3=NCCCN3C2=O)c(C)c1 (centres undefined)
 : -8, -32, ·, i, ?, ?, 1, -16
CC1(C)Cc2nc3sc(C(=O)NCCO)c(N)c3cc2CO1
 : -3, 6, -116, i, -2, 6, -1, -7
CC(NC(=O)COC(=O)c1ccccc1O)C1CC2CCC1C2 (centres undefined)
 : -21, 2, ·, ·, ·, ·, -3, -8
